StopGo FLuc – FMDV 2A StopGo reporter, firefly signal; AID 1745856; HEK cells with a luciferase reporter of 2A StopGo recoding; Potency, µM (highest dose often 57.5 µM), inactives show at the highest dose signal change, negative = less light; 120,000 tested, 0.23% active; active = well fitted falling curve with a large enough effect; inconclusive = small, poorly fitted or top-dose-only effect; inactive = no such curve, though single readings can be large or run the other way; further: nearly all actives have a fitted effect of over 60% in size; overnight with compound
StopGo RLuc – FMDV 2A StopGo reporter, Renilla signal; HEK cells with a luciferase reporter of 2A StopGo recoding; Potency, µM (titrated, usually from 57.5 µM), for the others: at the highest dose signal change, negative = less light; 120,000 tested, 0.32% active; AID 1745857; active means well fitted falling curve with a large enough effect; inconclusive means small, poorly fitted or top-dose-only effect; inactive means no such curve, though single readings can be large or run the other way; further: nearly all actives have a fitted effect of over 55% in size; overnight with compound
Starred values were filed as active, the others as inactive; & = joins results of further samples; [ ] = another dose, or the depositor's remark. On the % scale 0 is the no-effect control and ±100 the full control effect; potency means the concentration at half of the fitted maximal effect.

What do the screens show for `COC(=O)COc1ccc2c(=O)c(-c3csc(C)n3)coc2c1`?
StopGo FLuc: inconclusive; StopGo RLuc: 46%[activator]

Results for CCCN(C(=O)Cn1nc(Cc2ccncc2)c2ccccc2c1=O)c1ccc(CC)cc1 ?
StopGo FLuc: -3%; StopGo RLuc: 10%

What do the screens show for `CCC(=O)N1CCc2cc(S(=O)(=O)NCCC(=O)NCc3ccc(C)cc3)ccc21`?
StopGo FLuc: -7%; StopGo RLuc: -1%

What do the screens show for `COc1ccc2oc(=O)c(C(=O)NCCc3c(C)[nH]c4ccc(C)cc34)cc2c1`?
StopGo FLuc: -15%&8%; StopGo RLuc: -14%&3%

Results for Cc1cc(NC(=O)c2ccc(Cl)o2)no1 ?
StopGo FLuc: 0%; StopGo RLuc: 8%

What do the screens show for `Cc1ccc(S(=O)(=O)Nc2cccc(C(N)=O)c2)cc1F`?
StopGo FLuc: 9%; StopGo RLuc: 205%[activator]

How did Cn1c(=O)c2c(-c3ccccc3)n3c(c2n(C)c1=O)C(c1ccccc1[N+](=O)[O-])Nc1ccccc1-3 (stereo not given) do in these assays?
StopGo FLuc: 0%; StopGo RLuc: -12%

Results for O=C(NCCCCc1ccccc1)c1cc(=O)[nH]c2ccccc12 ?
StopGo FLuc: -1%; StopGo RLuc: -4%

What do the screens show for `CC1=C/C(=N\NC(=O)C2CC2)CC1`?
StopGo FLuc: 6%; StopGo RLuc: 6%

Results for CCc1ccc(NC(=O)CSc2ccc(-c3sc(-c4ccccc4)nc3C)nn2)cc1 ?
StopGo FLuc: -22%; StopGo RLuc: 33%[activator]

What do the screens show for `CCOc1ccc(C2=NC(c3cccs3)=Nc3ccc(C(C)C)cc3N2)cc1`?
StopGo FLuc: 133%[activator]; StopGo RLuc: 11%

How did Cc1ccc(CNC(=O)CCCn2c(=O)c3ccccc3n(Cc3ccccc3C)c2=O)cc1 do in these assays?
StopGo FLuc: -15%; StopGo RLuc: -2%

Results for CCOCCn1c(CN2CCN(Cc3ccccc3)CC2)nc2c1c(=O)[nH]c(=O)n2C ?
StopGo FLuc: 1%; StopGo RLuc: -2%

How did CSc1ccc(/C=C/C(=O)c2ccc(Cl)c(Cl)c2Cl)cc1 do in these assays?
StopGo FLuc: 0%; StopGo RLuc: 4%

How did COC(=O)COc1ccc(Oc2nc(NC(C)(C)C)nc(N3CCOCC3)n2)nn1 do in these assays?
StopGo FLuc: -2%; StopGo RLuc: 1%

What do the screens show for `O=C(NCCCN1CCCC1=O)c1cc(-c2cccnc2)nc2ccc(Cl)cc12`?
StopGo FLuc: 0%; StopGo RLuc: 39%[activator]

Results for COCCCNc1nc2c(c(=O)n(C)c(=O)n2C)n1Cc1ccccc1 ?
StopGo FLuc: 4%; StopGo RLuc: -12%

How did CCOC(=O)c1noc2ncnc(Nc3ccc(F)cc3F)c12 do in these assays?
StopGo FLuc: 49%[activator]; StopGo RLuc: 20%

How did Cc1cc2oc(C(=O)Nc3c(C)n(C)n(-c4ccccc4)c3=O)cc(=O)c2cc1C do in these assays?
StopGo FLuc: -17%; StopGo RLuc: -12%

Results for Cc1ccccc1Cn1cc(CN2[C@@H](C)COc3cc(Br)ccc3S2(=O)=O)nn1 ?
StopGo FLuc: -13%; StopGo RLuc: 0%

What do the screens show for `COc1ccc(NC(=O)CSc2nc(Cl)nc3nc[nH]c23)cc1`?
StopGo FLuc: 13%; StopGo RLuc: -6%

What do the screens show for `Cc1ccc(CS(=O)Cc2c(F)cccc2Cl)cc1` (stereo not given)?
StopGo FLuc: -16%; StopGo RLuc: -17%

How did Cc1sc(NC(=O)c2ccc3c(c2)OCO3)c(C#N)c1C do in these assays?
StopGo FLuc: 151%[activator]; StopGo RLuc: 18%

How did CC(OC(=O)c1cn(C)c2ccccc12)C(=O)NC(C)(C)C (stereo not given) do in these assays?
StopGo FLuc: 6%; StopGo RLuc: 6%

How did COCCCNC(=O)CSc1nc2cc3c(cc2c(=O)n1CCCCCC(=O)NCCc1ccc(OC)c(OC)c1)OCO3 do in these assays?
StopGo FLuc: -20%; StopGo RLuc: -8%

How did C=CCOc1ccc2c(=O)c(-c3ccc(OC)c(OC)c3)c(C(F)(F)F)oc2c1 do in these assays?
StopGo FLuc: inconclusive; StopGo RLuc: inconclusive

Results for CCc1ccc(-n2c(SCc3nc(-c4cc(OC)ccc4OC)no3)nnc2-c2ccccc2)cc1 ?
StopGo FLuc: -25%; StopGo RLuc: -1%

What do the screens show for `CCOc1cccc(C2CC(=O)Nc3cc4c(cc32)OCCO4)c1` (stereo not given)?
StopGo FLuc: inconclusive; StopGo RLuc: -7%

How did O=C(CN1C(=O)CSc2ccc(S(=O)(=O)N3CCCC3)cc21)NCc1ccccc1Cl do in these assays?
StopGo FLuc: -4%; StopGo RLuc: 47%[activator]

What do the screens show for `COc1ccccc1NC(=O)C1CCN(c2ncnc3c2nc2n3CCCCC2)CC1`?
StopGo FLuc: -2%; StopGo RLuc: -4%

By substructure, the entries above with a Cl atom (6)
Results for Cc1cc(NC(=O)c2ccc(Cl)o2)no1 ?
StopGo FLuc: 0%; StopGo RLuc: 8%

How did CSc1ccc(/C=C/C(=O)c2ccc(Cl)c(Cl)c2Cl)cc1 do in these assays?
StopGo FLuc: 0%; StopGo RLuc: 4%

What do the screens show for `O=C(NCCCN1CCCC1=O)c1cc(-c2cccnc2)nc2ccc(Cl)cc12`?
StopGo FLuc: 0%; StopGo RLuc: 39%[activator]

What do the screens show for `COc1ccc(NC(=O)CSc2nc(Cl)nc3nc[nH]c23)cc1`?
StopGo FLuc: 13%; StopGo RLuc: -6%

What do the screens show for `Cc1ccc(CS(=O)Cc2c(F)cccc2Cl)cc1` (stereo not given)?
StopGo FLuc: -16%; StopGo RLuc: -17%

How did O=C(CN1C(=O)CSc2ccc(S(=O)(=O)N3CCCC3)cc21)NCc1ccccc1Cl do in these assays?
StopGo FLuc: -4%; StopGo RLuc: 47%[activator]

Going on with the list:
Results for Cc1ccc(-c2csc3ncnc(Nc4ccc(C(=O)O)cc4)c23)cc1 ?
StopGo FLuc: 11%; StopGo RLuc: -11%

How did CNC(=O)NC(=O)CN(C1CCCC1)C1CCCC1 do in these assays?
StopGo FLuc: -1%; StopGo RLuc: 6%

Results for CCCC(C)NC(=O)c1ccc(N(C)C)cc1 (stereo not given) ?
StopGo FLuc: 209%[activator]; StopGo RLuc: 6%

Results for N#Cc1cnc2ccc(F)cc2c1Nc1cccc(C(F)(F)F)c1 ?
StopGo FLuc: inconclusive; StopGo RLuc: inconclusive

What do the screens show for `CCn1c(-c2ccccc2)cc2ccccc21`?
StopGo FLuc: -5%; StopGo RLuc: -4%

How did O=C(Nc1ccccc1OC(F)F)C1=NN(C2CCS(=O)(=O)C2)C(=O)CC1 (stereo not given) do in these assays?
StopGo FLuc: 7%; StopGo RLuc: 4%

Results for Cc1ccc(S(=O)(=O)N2CCCC(c3nc4c(nnn4Cc4ccc(OC(F)(F)F)cc4)c(=O)[nH]3)C2)cc1 (stereo not given) ?
StopGo FLuc: 23%; StopGo RLuc: 3%

How did Cc1ccc(NC(=O)CCNC(=O)C2CCCC2)cc1 do in these assays?
StopGo FLuc: 6%; StopGo RLuc: 7%

How did CCn1nc(C(=O)NC2CCN(Cc3ccccc3)C2)c2ccccc2c1=O (stereo not given) do in these assays?
StopGo FLuc: -1%; StopGo RLuc: -3%

What do the screens show for `CC(=O)c1cn(CC(=O)N2CCC(C(N)=O)CC2)c2ccccc12`?
StopGo FLuc: -5%; StopGo RLuc: -12%

What do the screens show for `Cc1ccccc1CSc1nc2c(=O)n(C)c(=O)n(C)c2n1C`?
StopGo FLuc: 47%; StopGo RLuc: 30%

Results for COc1ccccc1NC(=O)Cn1c(=O)n(Cc2ccc3c(c2)OCO3)c(=O)c2oc3ccccc3c21 ?
StopGo FLuc: -12%; StopGo RLuc: -10%

What do the screens show for `CC1(C)CC(=O)C(/C=N/C(N)=O)=C(O)C1`?
StopGo FLuc: 69%[activator]; StopGo RLuc: 25%

Results for O=c1oc2ccccc2c(NCc2ccccc2)c1NS(=O)(=O)c1ccc(F)cc1 ?
StopGo FLuc: -17%; StopGo RLuc: 36%[activator]

What do the screens show for `COc1ccc(-c2cc(OC(=O)c3cccc(Br)c3)c3c(C)oc(C)c3c(=O)c2)cc1`?
StopGo FLuc: 10%; StopGo RLuc: inconclusive

Results for Cc1ccccc1OCC(O)Cn1c(=N)n(CCN2CCCCC2)c2ccccc21 (stereo not given) ?
StopGo FLuc: -7%; StopGo RLuc: -4%

How did Cc1c(C(=O)Nc2cccc(F)c2)oc2c1-c1nn(Cc3c(F)cccc3Cl)cc1CC2 do in these assays?
StopGo FLuc: -2%; StopGo RLuc: 12%

What do the screens show for `CCOC(CNC(=O)c1ccc2c(c1)ncn2-c1cccc(C)c1)OCC`?
StopGo FLuc: 7%; StopGo RLuc: 2%

How did CCOCCCNC(=O)C(c1ccc(OC)cc1)N(Cc1cccs1)C(=O)c1ccc(NC(C)=O)cc1 (stereo not given) do in these assays?
StopGo FLuc: 2%; StopGo RLuc: 41%[activator]

How did COc1cc(Cl)c(C)cc1NC(=O)c1nc2ccccc2nc1N1CCCC1 do in these assays?
StopGo FLuc: -10%; StopGo RLuc: -11%

Results for Cc1ccc(C)c(NC(=O)CN2C(=O)C3(SCC(=O)N3c3ccc(C)c(C)c3)c3ccccc32)c1 (stereo not given) ?
StopGo FLuc: -18%; StopGo RLuc: 26%

How did CC1(C)C2CCC1(C)C(NC(=O)C1CCC1)C2 (stereo not given) do in these assays?
StopGo FLuc: 7%; StopGo RLuc: 6%

What do the screens show for `COc1cc(OC)c(NC(=O)N2CCSc3ccccc32)cc1Cl`?
StopGo FLuc: 8%; StopGo RLuc: -20%

How did CCOc1ccc(CN(C)S(=O)(=O)c2cnn(C)c2)cc1OC do in these assays?
StopGo FLuc: 18%; StopGo RLuc: 77%[activator]

What do the screens show for `CCc1ccccc1N(C)C(=O)c1cc2c(=O)oc3ccccc3c2s1`?
StopGo FLuc: -2%; StopGo RLuc: -11%

Results for O=C(/C=C/c1ccccc1)N(Cc1ccc2[nH]ccc2c1)C1CC1 ?
StopGo FLuc: 74%[activator]; StopGo RLuc: inconclusive

How did CCCOc1ccc(C(=O)Nc2ccc3nn(-c4ccc(OC)c(Cl)c4)nc3c2)cc1 do in these assays?
StopGo FLuc: -5%; StopGo RLuc: 4%

Results for CCCOC(=O)C(C)Oc1ccc2c(=O)c(Oc3ccccc3Cl)coc2c1 (stereo not given) ?
StopGo FLuc: 3%; StopGo RLuc: 22%

What do the screens show for `COc1ccc(CCNC(=O)C2CCCN(c3ccc4nnc(C(F)(F)F)n4n3)C2)cc1` (stereo not given)?
StopGo FLuc: -4%; StopGo RLuc: -12%

What do the screens show for `CCN(CC(=O)Nc1c(F)cccc1F)C(=O)C1CC(=O)N(Cc2ccccc2)C1` (stereo not given)?
StopGo FLuc: 13%; StopGo RLuc: 33%[activator]

Results for NC(=O)c1ccccc1O ?
StopGo FLuc: -14%; StopGo RLuc: -6%

Results for CC1=C(CC(=O)O)c2cc(F)ccc2/C1=C\c1ccc(S(C)(=O)=O)cc1 ?
StopGo FLuc: -4%[11.5 µM]; StopGo RLuc: -7%

Results for Cc1ccc(NC(=O)CN(C)C(=O)CNC(=O)c2ccc3c(c2)OCO3)cc1 ?
StopGo FLuc: 32%[activator]; StopGo RLuc: 4%

How did N#CCSc1ccccc1C(=O)Nc1ccc2c(c1)CCC2 do in these assays?
StopGo FLuc: 139%[activator]; StopGo RLuc: 0%

How did CCN(C(=O)C1CCCCC1)C1CC1 do in these assays?
StopGo FLuc: -2%; StopGo RLuc: 11%

How did CCOc1ccc(N2CC(NC(=O)C3CCCCC3)CC2=O)cc1 (stereo not given) do in these assays?
StopGo FLuc: -13%; StopGo RLuc: -8%

How did O=C(CSc1nnc(-c2ccc3c(c2)OCO3)o1)NC1CCCC1 do in these assays?
StopGo FLuc: 30%; StopGo RLuc: -13%

What do the screens show for `CCC(C)(Nc1ccc(OC)c(OC)c1)c1nnnn1-c1c(C)cccc1C` (stereo not given)?
StopGo FLuc: 22%; StopGo RLuc: 41%[activator]

How did O=C(CSc1nc(-c2ccccc2F)nc2cc(=O)[nH]n12)N1CCc2ccccc21 do in these assays?
StopGo FLuc: 83%[activator]; StopGo RLuc: 63%[activator]

Results for CCOC(=O)c1c(NC(=O)c2cc(=O)c3c(C)cc(C)cc3o2)sc(C)c1C ?
StopGo FLuc: -6%; StopGo RLuc: 4%

Molecules above that contain two or more sulfur atoms:
Results for CCc1ccc(NC(=O)CSc2ccc(-c3sc(-c4ccccc4)nc3C)nn2)cc1 ?
StopGo FLuc: -22%; StopGo RLuc: 33%[activator]

How did O=C(CN1C(=O)CSc2ccc(S(=O)(=O)N3CCCC3)cc21)NCc1ccccc1Cl do in these assays?
StopGo FLuc: -4%; StopGo RLuc: 47%[activator]

(continued)
What do the screens show for `CCC(=O)NNc1ncnc2c1cnn2-c1ccc(C)c(Cl)c1`?
StopGo FLuc: 97%[activator]; StopGo RLuc: 0%

How did CC(C)CC(C(=O)NC1CCN(Cc2ccccc2)CC1)N1Cc2ccccc2C1=O (stereo not given) do in these assays?
StopGo FLuc: -21%; StopGo RLuc: -13%

How did C/C(=N/NC(=S)NC(C)C)c1ccc(C2CCCCC2)cc1 do in these assays?
StopGo FLuc: -13%; StopGo RLuc: inconclusive

What do the screens show for `O=C(NC1CC1)C(NCc1cccc(Cl)c1)c1ccc(F)cc1` (stereo not given)?
StopGo FLuc: 5%; StopGo RLuc: 0%

How did Cc1ccc2[nH]c(=O)c3cc(C(=O)NC4CCC(C)CC4)sc3c2c1 (stereo not given) do in these assays?
StopGo FLuc: -3%; StopGo RLuc: 12%
